Source: PubChem
ClpP mod: qHTS Assay for Activators of ClpP; purified B. subtilis ClpP, FRET peptide cleavage, 20 min; Potency, µM (series often up to 57.5 µM), without a hit: top-dose activity change, negative = active; 340,000 compounds, 1.9% hits; AID 651965, 2013; active = well fitted falling curve with a large enough effect; inconclusive = small, poorly fitted or top-dose-only effect; inactive = no such curve, though single readings can be large or run the other way; further: potency means the concentration at half of the fitted maximal effect; the source files actives as falling curves though it sought activators and does not explain the sign; nearly all actives have a fitted effect of over 65% in size; many hits overshoot -100%
Target sequence (P80244 whole entry, looked up): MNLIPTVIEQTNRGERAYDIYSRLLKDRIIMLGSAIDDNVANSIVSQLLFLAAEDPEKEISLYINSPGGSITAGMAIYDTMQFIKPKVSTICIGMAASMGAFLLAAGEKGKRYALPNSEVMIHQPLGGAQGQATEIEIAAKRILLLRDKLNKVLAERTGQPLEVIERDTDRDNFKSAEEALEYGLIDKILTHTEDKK
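Buffer: 100 mM Tris/HCl pH8, 100 mM KCl, 0.05% low protease BSA, 2.5% glycerol, 0.01% Tween-20. ClpP 10 microg/mL final; 20 min RT; delta FRET normalized to ADEP and DMSO controls.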
CtBP-E1A inh: qHTS Assay for Inhibitors of the CtBP/E1A Interaction; AlphaScreen GST-E1A/His-CtBP binding, 1536-well; stronger effect = lower value; control for the full effect not named in the record; activity change, % (test concentration not listed); 340,000 compounds, 0.49% hits; CtBP / adenovirus E1A interaction (AlphaScreen); in the data active means activity change below about -65%; inconclusive means about -30% to -65%; inactive means above about -30%; further: on the % scale 0 is the no-effect control and ±100 the full control effect
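Protein mix (5X: 125 nM each GST-E1A, His-CtBP) was incubated with pinned compound 2 h at 37 deg C in dark, in 50 mM Tris pH 8.0 buffer with 300 mM NaCl. Glutathione donor and nickel acceptor beads followed; AlphaScreen signal read after 1 h.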
Sfp PPTase inh: qHTS Assay for Inhibitors of Bacillus subtilis Sfp phosphopantetheinyl transferase (PPTase); 4'-phosphopantetheinyl transferase ffp (Bacillus subtilis), Q9F4F7; 310,000 compounds, 3.5% hits; Potency, µM, for inactives: max response, negative = inhibition, most hits filed as inhibitors; Biochemical Sfp PPTase activity, qHTS; active means well fitted inhibition curve with a large enough effect; inconclusive means small, poorly fitted or top-dose-only effect, or another doubt; inactive means no such curve, though single readings can be large or run the other way;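 further: the enzyme is Sfp with the accession as filed and its product quenches rhodamine fluorescence; potency means the concentration at half of the fitted maximal effect; 0% = enzyme reaction without inhibitor and -100% = no enzyme wells; top concentration of the series not given in the record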
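With Hepes-Na pH 7.6 buffer containing 10 mM MgCl2, Sfp (15 nM) modified BHQ-2-YbbR (12.5 uM) using rhodamine-CoA (5 uM). Two reads 30 minutes apart at 525/598 nm yielded each well's rate.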
gsp antagonist: qHTS for Antagonists of gsp, the Etiologic Mutation Responsible for Fibrous Dysplasia/McCune-Albright Syndrome: qHTS | gsp-mutant cells, cAMP HTRF, 30 min; control for the full effect not named in the record | Potency, µM (series often up to 76.9 µM), without a hit: at the highest dose activity change, negative = inhibition, most hits filed as inhibitors | 340,000 compounds, 0.4% hits; active = falling curve of any shape with a large fitted effect; inconclusive = falling curve, mostly with a smaller effect; inactive = flat or rising curve; cell line not stated here;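 further: intracellular cAMP measured with PDE inhibitor Ro 20-1724 present during compound exposure; potency means the concentration at half of the fitted maximal effect; on the % scale 0 is the no-effect control and ±100 the full control effect; nearly all actives have a fitted effect of over 65% in size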
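Measurement of cellular cAMP by homogeneous time-resolved fluorescence following a 30 min compound exposure at 37C. The PDE inhibitor […] was present throughout; the assay buffer was DPBS with 0.05% BSA and 0.005% Tween 20.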
Menin MLL FP FL: qHTS Assay for Inhibitors Targeting the Menin-MLL Interaction in MLL Related Leukemias: Competition With Fluorescein Labeled MLL-derived Peptide; Fluorescence polarization, fluorescein-MLL peptide displacement from menin; FP activity change, % at 61.4 µM; 290,000 tested, under 10 active; AID 1766, 2009; inconclusive = falling polarisation curve, or a change in total fluorescence; inactive = total fluorescence flat and polarisation flat or rising; no compound was filed as active; the % refers to the polarisation; negative = inhibition;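 further: % of control where 0% means no effect; inhibitors lower the polarisation; unlabelled MLL peptide was the positive control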
gsp ag: qHTS for Agonist of gsp, the Etiologic Mutation Responsible for Fibrous Dysplasia/McCune-Albright Syndrome: qHTS. 340,000 compounds, 0.13% hits. Potency, µM (series often up to 76.9 µM), for inactives: at the top dose activation (cAMP increase), usual class: activators. gsp mutant cells, cAMP HTRF, 30 min; control for the full effect not named in the record. AID 624287, 2012; active = well fitted activation curve with a large enough effect; inconclusive = small, poorly fitted or top-dose-only effect, or another doubt; inactive = no such curve, though single readings can be large or run the other way; cell line not stated here;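 further: phosphodiesterase inhibitor Ro 20-1724 added with compounds to block cAMP breakdown; potency means the concentration at half of the fitted maximal effect; nearly all actives have a fitted effect of over 60% in size; about a fifth of the inactives were tested at one dose only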
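Cells stably selected in G418 were plated at 2000/well, grown 16-24 hr, then given compounds in DMSO with the PDE inhibitor […] (300 uM solution added) for 30 min at 37C; cAMP was read by HTRF.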
TRPV1 PAM: HTS Assay for Compounds that Act as Potentiators of the Vanilloid Receptor 1. AID 540277, 2011. TRPV1-expressing cells, Fluo-8 calcium influx, capsaicin EC20 potentiation; host cell line not named in the record; control for the full effect not named in the record. Transient receptor potential cation channel subfamily V member 1 (Homo sapiens), Q8NER1. 320,000 compounds, 0.02% hits. potentiation, % at 8.33 µM; active means potentiation above 80%; inconclusive means 30% to 80%; inactive means below 30%; further: 0% is about no effect
Target sequence (Q8NER1 whole entry, looked up): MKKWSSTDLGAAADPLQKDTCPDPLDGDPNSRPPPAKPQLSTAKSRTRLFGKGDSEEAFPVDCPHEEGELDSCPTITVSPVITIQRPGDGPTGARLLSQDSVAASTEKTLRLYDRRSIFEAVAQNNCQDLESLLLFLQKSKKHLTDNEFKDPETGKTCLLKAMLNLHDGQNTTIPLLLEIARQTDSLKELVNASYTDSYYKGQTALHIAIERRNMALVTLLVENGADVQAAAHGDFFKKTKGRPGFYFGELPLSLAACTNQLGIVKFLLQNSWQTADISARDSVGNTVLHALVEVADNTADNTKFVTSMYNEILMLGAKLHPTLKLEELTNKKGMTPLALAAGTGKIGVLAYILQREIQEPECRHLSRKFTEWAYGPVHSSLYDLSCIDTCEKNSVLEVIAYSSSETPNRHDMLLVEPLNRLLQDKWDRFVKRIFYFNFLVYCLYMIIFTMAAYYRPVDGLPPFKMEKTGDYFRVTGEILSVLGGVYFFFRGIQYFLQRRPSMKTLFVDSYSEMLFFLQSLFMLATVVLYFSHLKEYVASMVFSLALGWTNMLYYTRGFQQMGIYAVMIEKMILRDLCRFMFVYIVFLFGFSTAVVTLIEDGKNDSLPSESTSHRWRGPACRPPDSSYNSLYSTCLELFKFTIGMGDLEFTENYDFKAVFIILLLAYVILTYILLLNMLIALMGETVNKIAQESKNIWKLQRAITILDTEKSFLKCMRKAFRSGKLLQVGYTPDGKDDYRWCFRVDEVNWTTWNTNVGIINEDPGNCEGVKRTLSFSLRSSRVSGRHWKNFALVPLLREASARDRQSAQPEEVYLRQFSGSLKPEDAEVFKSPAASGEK
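TRPV1-expressing cells were cultured overnight at 35.5C and loaded with Fluo-8 calcium dye for 40 to 90 min at room temperature. After a 10 s baseline, compound was added and calcium influx was read kinetically for 3 min (ex 480/em 520 nm).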
An asterisk follows results filed as active; ? = inconclusive; · = not tested or not shown; [ ] = another dose, or the depositor's remark.

SMILES	ClpP mod	CtBP-E1A inh	Sfp PPTase inh	gsp antagonist	Menin MLL FP FL	gsp ag	TRPV1 PAM
O=C(Nc1ccccc1)N1CCN(S(=O)(=O)c2ccccc2)CC1	·	·	5%	3%	-6.8	-2%[15.4 µM]	-21
COc1cccc(N(CC(=O)NC(C)c2ccccc2)S(C)(=O)=O)c1 (stereo not given)	-3.1%	5	-9%	-2%	2.8	-3%	-6
Cc1cc(SCC(=O)NC(=O)NCc2ccco2)nc2c(C)cccc12	1.5%	0	10µM*	8%	13	9%	9
COc1ccc2c(c1)[C@H]1[C@H](CO2)[C@H](c2ccccc2)[C@]2(C)C(=O)Nc3cc(F)ccc3C(=O)N12	-22%	-12	·	-17%	·	·	·
CC(Sc1nnc(C2CC2)n1C1CC1)C(=O)c1ccc(Br)cc1 (stereo not given)	-2.3%	-16	·	0%	·	-18%	-16
CCCCCCCC(=O)NNC(=O)c1c(O)c2ccccc2n(CCC)c1=O	·	0	9%	-2%	-0.4	-6%	-2
COCNc1nc(OCC#N)nc(N(C)C)n1	-0.2%	0	5%	13%	-0.7	22%	5
O=S(=O)(c1cccc(-c2csc(N/N=C/c3ccco3)n2)c1)N1CCOCC1	0.8%	-22	2%	-17%	-0.2	2%	?
COc1ccc(OC)c(CN2CCC(N3CCC(C(=O)NC4CC4)CC3)CC2)c1	2.6%	0	14%	10%	·	19%	-1
Cc1cc(C)cc(NC(=S)NCCSc2ccc(Cl)cc2)c1	·	-3	19%	?	6.3	-4%[15.4 µM]	-2
CCc1ccccc1NC(=O)Cn1ccn(-c2ccc(OC)cc2)c(=O)c1=O	-1.9%	-7	18%	6%	-1.0	-2%	2
CC(C(=O)OCn1nnc2ccccc2c1=O)N1C(=O)c2ccccc2C1=O (stereo not given)	1.7%	0	14%	3%	0.4	-4%	-12
COc1ccc(CNC(=O)CCC(=O)Nc2cccnc2)cc1	·	-2	12%	11%	0.3	-15%	-9
Clc1cccc(NCc2cn3cccnc3n2)c1	·	27	1%	13%	-0.7	-40%[15.4 µM]	-15
COc1cccc(/C(N)=N/OC(=O)Cc2ccccc2[N+](=O)[O-])c1	0.8%	0	10%	-17%	2.3	0%	3
Cc1c(Cl)cccc1NC(=S)N1CCN(c2ccccn2)CC1	·	9	7%	7%	0.6	-17%[15.4 µM]	3
CN(C(=O)COC(=O)CNC(=O)C12CC3CC(CC(C3)C1)C2)c1ccccc1	0.7%	6	1%	4%	·	10%[15.4 µM]	-1
CCc1noc(C)c1C(=O)N(C)CC(=O)Nc1ccccc1C(F)(F)F	·	8	·	3%	·	10%[15.4 µM]	10
CC(C)(C)c1ccc(C(=O)c2cn[nH]c2-c2ccccc2O)cc1	·	-1	18%	-5%	4.3	12%	3
CCn1c(CNC(=O)COc2ccc(C(C)C)cc2)nnc1SCC(=O)Nc1ccccc1	-1.6%	-10	3%	-14%	-1.0	-7%	-1

Structural class, those above with an aryl methoxy group.
SMILES	ClpP mod	CtBP-E1A inh	Sfp PPTase inh	gsp antagonist	Menin MLL FP FL	gsp ag	TRPV1 PAM
COc1cccc(N(CC(=O)NC(C)c2ccccc2)S(C)(=O)=O)c1 (stereo not given)	-3.1%	5	-9%	-2%	2.8	-3%	-6
COc1ccc2c(c1)[C@H]1[C@H](CO2)[C@H](c2ccccc2)[C@]2(C)C(=O)Nc3cc(F)ccc3C(=O)N12	-22%	-12	·	-17%	·	·	·
COc1ccc(OC)c(CN2CCC(N3CCC(C(=O)NC4CC4)CC3)CC2)c1	2.6%	0	14%	10%	·	19%	-1
CCc1ccccc1NC(=O)Cn1ccn(-c2ccc(OC)cc2)c(=O)c1=O	-1.9%	-7	18%	6%	-1.0	-2%	2
COc1ccc(CNC(=O)CCC(=O)Nc2cccnc2)cc1	·	-2	12%	11%	0.3	-15%	-9
COc1cccc(/C(N)=N/OC(=O)Cc2ccccc2[N+](=O)[O-])c1	0.8%	0	10%	-17%	2.3	0%	3

Later entries:
SMILES	ClpP mod	CtBP-E1A inh	Sfp PPTase inh	gsp antagonist	Menin MLL FP FL	gsp ag	TRPV1 PAM
CC(C)CN(C(=O)CCC(=O)OCC(=O)c1ccc(F)c(F)c1)c1c(N)n(CC(C)C)c(=O)[nH]c1=O	0.9%	10	7%	6%	·	?	-5
Cc1ccc(CSc2nnc(SCC(=O)N/N=C/c3c[nH]c4ccccc34)s2)cc1	0.7%	19	?	7%	12	13%[15.4 µM]	4
COc1cc(C(=O)NC(C)C2CC3CCC2C3)cc(OC)c1OC (stereo not given)	1.2%	-4	25%	-1%	-1.9	-6%[15.4 µM]	11
CC1(c2nnc(-c3ccccc3)o2)CC(c2ccc(Cl)cc2)=NO1 (stereo not given)	-0.4%	·	2%	-13%	1.2	-13%	-18
COc1ccc(CN2CCNC(=O)C2CC(=O)NC2CCCCCCC2)cc1C (stereo not given)	-1.9%	2	10%	6%	-0.4	5%	3
COC(=O)C(c1ccccc1)N(Cc1cccc(CN(C(C(=O)OC)c2ccccc2)S(C)(=O)=O)c1)S(C)(=O)=O (stereo not given)	-1.6%	-1	8%	-13%	8.0	·	-4
CC(=O)Nc1ccc(SC(C)C(=O)NC(N)=O)cc1 (stereo not given)	-0.9%	-1	-6%	2%	3.7	-47%[inhibitor]	0
CC(C)(C)C(=O)C[n+]1ccc(C(N)=O)cc1	0.5%	0	9%	-5%	1.1	11%[15.4 µM]	6
CCOc1ccc(C2NC(=O)NC(c3ccccc3)=C2C(C)=O)cc1OC (stereo not given)	1.1%	2	16%	-2%	2.0	4%	-2
CCC(C)NC(=O)CC(c1ccc(OC)cc1)n1cccc1 (stereo not given)	0.1%	3	11%	-14%	3.9	-9%	3
COc1cc(OC)cc(C(=O)NCC(=O)N2CCCCCCC2)c1	-5.2%	3	·	6%	·	-29%	-1
CCCCC(=O)NS(=O)(=O)c1ccc(N=NN2CCOCC2)cc1	-0.9%	0	4%	3%	1.9	-8%[15.4 µM]	2
CCCC(=O)Nc1cc(C)c2c(=O)oc3ccccc3c2n1	-4.2%	-4	10%	-5%	2.2	9%	-13
COc1cccc(OCC(=O)NNC(=O)C(=O)N2CCCC2)c1	1.0%	-2	0%	-11%	-3.5	5%	-1
CCOC(=O)c1nc2ccccc2c(=O)[nH]1	·	7	-12%	13%	0.5	-3%[15.4 µM]	-10
C=CCNC(=O)c1ccc2c3n(nc2c1)-c1ccc(Cl)cc1CO3	4.6%	-5	·	-12%	·	-12%	·
CC(C)CCNC(=O)C1CCC(CNS(=O)(=O)c2ccc(Cl)cc2)CC1 (stereo not given)	1.6%	4	-3%	8%	1.8	6%	1
O/N=C/c1cn(-c2ccccc2)nc1-c1cccnc1	-1.1%	-8	2%	-13%	-1.5	5%[15.4 µM]	-8
CN(CC(=O)Nc1ccc(N2CCOCC2)cc1)C(=O)c1cccc(Cl)c1Cl	0.7%	-3	·	6%	·	11%	-5
O=C(O)CCC(=O)N1CCN(c2nc(-c3ccccc3)c3ccccc3n2)CC1	-7.9%	·	14%	-19%	-6.6	22%	16
COc1ccc(CCNC(=O)Cc2ccc(OCc3ccccc3)c(OC)c2[N+](=O)[O-])cc1OCc1ccccc1	0.9%	-3	22%	-10%	8.9	-13%	-4
Cc1nc2c(=O)[nH]c3ccccc3c2o1	·	10	10%	13%	1.7	4%[15.4 µM]	11
CO/N=C\CC(=O)Nc1ccc(Oc2ccccc2)cc1	·	9	19%	21%	0.3	-29%	-10
O=C(Cc1csc(-c2ccc(F)cc2)n1)Nc1cccc(S(=O)(=O)NC2=NCCC2)c1	-2.7%	2	·	-8%	·	-11%	?
CCC(Sc1ccc(C(=O)O)cc1)C(=O)O (stereo not given)	-8.3%	-2	23%	7%	1.8	-9%	1
CC(C)(C)C(=O)c1cnc(Nc2ccccc2)s1	-13%	4	7%	0%	3.9	-6%	-10
O=C(Cc1ccc(Cl)cc1)Nc1ccccc1C(=O)N1CCCC1	-2.6%	-1	18%	-2%	-2.2	2%	-4
CCOC(=O)C(=O)NCC(c1cccs1)S(=O)(=O)c1ccc(F)cc1 (stereo not given)	·	6	·	6%	·	4%[15.4 µM]	7
O=C(Nc1nc(-c2ccccc2)cs1)c1ccc2c(=O)n3c(nc2c1)CCCCC3	-8.9%	-12	15%	40µM*	4.8	-76%	11
O=C(Nc1ccccc1F)c1c[nH]c(=O)[nH]c1=O	·	-1	7%	6%	14	-5%[15.4 µM]	-9
CC1=C(C(=O)Nc2cccnc2)C(c2ccc3c(c2)OCO3)C2=C(CCCC2=O)N1 (stereo not given)	?	-2	16%	16%	3.2	28%	3
Cc1sc2nc(SC3CCOC3=O)n(Cc3ccccc3)c(=O)c2c1C (stereo not given)	·	-5	-1%	-28%	0.1	19%[15.4 µM]	7
CCC(CC)C(=O)NCCc1ccc(S(N)(=O)=O)cc1	-0.2%	2	22%	1%	0.1	-5%	0
CCCCc1nnc(NC(=O)c2nc3nccc(C)n3n2)s1	·	-26	-24%	·	7.3	-8%[15.4 µM]	-4
O=C(NC(C(=O)N/N=C/c1ccccn1)c1n[nH]c(=O)c2ccccc12)c1ccccc1 (stereo not given)	·	-18	-18%	1%	0.0	-1%[15.4 µM]	-4
CCOC(=O)C1CCN(c2c(NCCN(CC)c3ccccc3)c(=O)c2=O)CC1	0.1%	·	11%	-16%	-5.0	?	-13
Cc1nnc(NC(=O)CSc2nnc(CNC(=O)c3ccccc3)n2-c2ccccc2)s1	-2.8%	1	-2%	6%	4.1	10%	-1
